# Measles inh = inhibitors of measles virus growth in infected cells; infected Vero cells, GFP fluorescence, 64 h; active compounds read low; z-score (test concentration not listed); 0.1% of 33,000 active;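 active = z-score under -3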;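 also: score is relative to mean and SD of the compound wells of a plate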
# The depositor's hits bear a star.
Measles inh	SMILES
-0.09	O=C(CN1C(=O)c2ccccc2Sc2ccc(C(=O)N3CCCC3)cc21)Nc1ccccc1Cl
-0.86	CCCOc1ccc(C2C(C(=O)OCC)=C(C)NC3=C2C(=O)CC(c2ccc(OC)cc2)C3)cc1 (stereo not drawn)
-0.18	CCCC1N=C(c2ccc(OC)cc2)CC(c2ccccc2O)N1 (stereo not drawn)
-0.8	CC(=O)Nc1cc(C(=O)NCCN(C)C)ccc1Sc1ccc(F)cc1
1.66	CCN(CC)C(=O)C[n+]1ccc(C(N)=O)cc1
-0.8	CC1(C)CC(=O)C(C2(O)C(=O)Nc3ccc(Br)cc32)CO1 (stereo not drawn)
1.01	Cc1ccccc1Cn1c(CN2CC(C)CC(C)C2)nc2c1c(=O)n(C)c(=O)n2C (stereo not drawn)
0.48	Cc1ccccc1CS(=O)(=O)CCC(=O)O
-0.01	Cc1cc(Br)ccc1NC1OC(=O)c2ccccc21 (stereo not drawn)
-0.19	Cc1ccc(C)c(OCCCCc2c(C)n[nH]c2C)c1
-1	CCOc1ccc(-n2nc(C(=O)N3CCCCC3C)c3ccccc3c2=O)cc1 (stereo not drawn)
-0.05	CCOc1ccccc1C(=O)N1CC(=O)Nc2ccc(C)cc2C1c1ccccc1 (stereo not drawn)
-0.36	COc1cc2c(cc1OC)C(c1cccc(Br)c1)CC(=O)N2 (stereo not drawn)
-0.47	C(=Cc1ccccc1)CSc1nnc(-c2ccncc2)n1-c1ccccc1
-1.44	COc1ccc(Cl)cc1-c1nc(-c2ccc(NC(=O)c3ccco3)cc2)no1
-0.7	CCN1C(=O)CC(C(=O)Nc2ccccc2)SC1=Nc1ccc(Cl)c(C(F)(F)F)c1 (stereo not drawn)
1.62	COc1ccc(N2C(=O)c3ccc(Oc4ccc([N+](=O)[O-])cc4)cc3C2=O)cc1OC
-1.95	COc1ccc(Cl)cc1NC(=O)CSc1nnnn1-c1ccc(C(=O)O)cc1
0.07	O=S1(=O)N=C(N(CCOc2ccccc2)CCOc2ccccc2)c2ccccc21
-0.25	CCC1Oc2ccccc2N(Cc2ccc(F)cc2)C1=O (stereo not drawn)
0.49	Cn1cc(SCc2ccc(Cl)cc2)c2ccccc21
1.52	Cc1ccccc1N1C(=O)C(Cl)=C(Nc2cccc(O)c2)C1=O
0.01	CCCc1c(O)nc(SCC(=O)Nc2ccc3c(c2)CCC3)[nH]c1=O
2.06	Cc1ccc(-c2n[nH]c(=O)c3ccccc23)cc1S(=O)(=O)NC(C)(C)C
-1.23	CC1CCN(c2nc(-c3ccc(C(C)C)cc3)c(C#N)c(=O)[nH]2)CC1
1.04	CN1CCN(CC(O)COCc2ccccc2)CC1 (stereo not drawn)
-0.43	Cc1cccc(-n2c(=O)c3ccccc3n(Cc3ccc(Cl)cc3)c2=O)c1
-0.42	Cc1onc(-c2ccccc2)c1C(=O)NC1CCSC1=O (stereo not drawn)
-0.6	COc1cccc(N(CC(=O)O)S(=O)(=O)c2ccc(Cl)cc2)c1
-0.43	O=C(Nc1cc2cc([N+](=O)[O-])ccc2oc1=O)c1ccc(Br)cc1
0.47	Cc1ccc(N2C(=O)C3CCCCC3C2=O)cc1F (stereo not drawn)
0.62	CC(Nc1nc(F)cc(=O)[nH]1)C(=O)O (stereo not drawn)
-0.13	CC1=C(C(=O)OC2CCCCC2)C(c2cccs2)n2ncnc2N1 (stereo not drawn)
-1	O=C(Nc1c2c(nn1-c1ccc(Oc3ccccc3)cc1)CSC2)c1ccco1
-0.9	CC1=C(C(=O)OCCc2ccccc2)C(c2coc3ccccc3c2=O)C2=C(CC(C)(C)CC2=O)N1 (stereo not drawn)
-0.55	CSC(=O)c1c(C(F)F)nc(C(F)(F)F)c(C(=O)S)c1CC(C)C
0.7	CCN(CCNC(=O)c1cc(=O)[nH]c2ccc(S(=O)(=O)N3CCCCCC3)cc12)c1ccccc1
0.31	C=CCn1c(=S)[nH]c2scc(-c3cccs3)c2c1=O
1.3	CC(C)COC(=O)C(C)Sc1n[nH]c(=O)[nH]c1=O (stereo not drawn)
0.25	CC(Sc1cn(CCNC(=O)c2ccccc2F)c2ccccc12)c1ccccc1 (stereo not drawn)
-0.6	O=C(CCn1c(=S)oc2ccccc21)Nc1cccc(-c2nc3ncccc3o2)c1
-0.42	CCCN(CCC)C(=O)c1cc2c(=O)oc3ccccc3c2s1
1.15	Nc1n[nH]c(-c2cccc([N+](=O)[O-])c2)n1
-0.36	Cc1ccc(C(=O)CC2(O)C(=O)Nc3ccc(C)cc32)cc1 (stereo not drawn)
0.12	CN(C(=O)Cc1c(C(=O)O)[nH]c2ccc(Cl)cc12)c1ccccc1F
1.67	CC1=CC(C)(C)Nc2ccc(OC(=O)c3cccc(Br)c3)cc21
-1.68	COc1cccc(C(=O)Nc2ccc3c(c2)OCCO3)c1
1.07	CCC1CCCCN1C(=O)CSc1nc(-c2cccs2)cc(C(F)(F)F)n1 (stereo not drawn)
-0.93	CC1=C(C(=O)OC2CCCC2)C(c2ccccc2C(F)(F)F)C2=C(CCCC2=O)N1 (stereo not drawn)
-0.41	COc1cc2c(cc1OC)C(COc1ccc(F)cc1)N(C(=O)c1cccc(C)c1)CC2 (stereo not drawn)
-0.4	Cc1ccc(NC(=O)c2oc3ccc(S(=O)(=O)N(C)C4CCCCC4)cc3c2C)c(C)c1
-0.6	O=C(Nc1ccc(NC(=O)c2cccs2)cc1)c1ccc(Cl)cc1
0.43	O=C1CCC([N+](=O)[O-])C(c2ccccc2Cl)N1 (stereo not drawn)
-0.45	COc1ccc(CCNC(=O)Cn2c(=O)n(-c3ccc(Cl)cc3)c(=O)c3c4c(sc32)CCC4)cc1OC
-1.08	CC12COC3(C(=O)NCCc4ccccc4)CC1CCC32C (stereo not drawn)
0.18	COc1ccc(-c2cc(C(=O)N3CCN(c4ccc(F)cc4)CC3)no2)cc1OC
1.96	Cc1ccc(-n2c(SCC(=O)N3CCC(C)CC3)nc3c([nH]c4ccccc43)c2=O)cc1
0.71	ClCc1nc2ccccc2n1Cc1ccccc1
-1.55	CCOc1ccc(NC(=O)C2CCN(S(=O)(=O)c3ccc(Cl)cc3)CC2)cc1
0.57	COc1ccc(Cl)cc1NC(=O)c1cnn2c1NC(c1ccc(C)cc1)CC2C(F)(F)F (stereo not drawn)

# Remaining list, next part
Measles inh	SMILES
1.07	Cc1ccc2c(c1)c(CC(=O)Nc1ccc3c(c1)OCO3)c(C(=O)O)n2C
0.07	COc1ccc(-n2c(C=Cc3ccc(F)cc3)nc3cc(OC)c(OC)cc3c2=O)cc1Cl
0.46	CC(C)CNC(=O)Cn1cnc2c1c(=O)n(C)c(=O)n2C
-1.11	Cc1nc2sccn2c1-c1csc(Nc2ccccn2)n1
0.56	CCOc1ccc(CN2CCN(C(=O)c3cccc(OC)c3)CC2)cc1
0.71	COc1cc(NC(=O)c2cc3cc4ccc(C)cc4nc3o2)cc(OC)c1OC
-0.23	CCCNc1ccc(C(=O)O)cc1[N+](=O)[O-]
0.8	COC(=O)C1=CN(C(C)C)C=C(C(=O)OC)C1c1ccccc1F
-1.27	O=C(Cn1c(=S)[nH]c2ccccc2c1=O)NCCc1ccc(Cl)cc1
2.07	COc1ccccc1Oc1nc2c(c(=O)n(C)c(=O)n2C)n1Cc1ccccc1F
-0.29	Cc1ccc(-n2nc3cc(C)c(NC(=O)c4ccc5c(c4)OCCO5)cc3n2)cc1
-0.21	Cc1ccc(CNC(=O)c2ccc3c(c2)N(Cc2ccc(Cl)cc2)C(=O)CS3)cc1
-0.48	COc1ccc(-c2[nH]c(=O)[nH]c2-c2ccccc2)cc1
-0.28	Cc1ccc(-c2nc3ncccc3o2)cc1NC(=O)c1ccc2c(c1)OCCO2
-0.05	CCOc1ccc(-n2nc(C(=O)N3CCOCC3)c3ccccc3c2=O)cc1
-0.49	CC(C)c1ccc(C2/C(=C(\O)c3ccc(Cl)cc3)C(=O)C(=O)N2CCN(C)C)cc1 (stereo not drawn)
-0.65	O=C(COc1cccc(Br)c1)Nc1ccc(SC(F)F)cc1
0.1	COc1cc(NC(=O)c2cc(-c3cccc(Cl)c3)on2)c(OC)cc1Cl
0.1	CCOC(=O)Cc1ccc(N(Cc2ccccc2)S(=O)(=O)c2ccc(F)c(C)c2)cc1
-0.93	CCOC(=O)c1ccc(NC(=O)C2CC(=O)N(C)C(=Nc3ccccc3OC)S2)cc1 (stereo not drawn)
-0.3	CN(C)c1ccc(C2C=C(Nc3ccccc3)C(=O)N2c2ccccc2)cc1 (stereo not drawn)
-0.31	O=C(Nc1ccc2c(c1)C(=O)N(c1cccc([N+](=O)[O-])c1)C2=O)c1ccc(Br)cc1
-0.1	COC(=O)C1=CN(C)C=C(C(=O)OC)C1c1cccc(C)c1
0.7	CC(C)Cn1cc(C(=O)NC(C)c2ccc3c(c2)OCCO3)c2c3ccccc3n(C)c2c1=O (stereo not drawn)
-1.84	Cc1nn(C(=O)c2ccco2)c(-c2ccccc2)c1Sc1ccccc1
-0.33	COc1ccc(CNC(=O)C2CCN(C(=O)c3ccccc3)CC2)cc1
1.75	CC1CCN(C(=O)C2CCCN(S(C)(=O)=O)C2)CC1 (stereo not drawn)
-0.19	Cn1cc(CCC(=O)NC2CCCc3ccccc32)c2ccccc21 (stereo not drawn)
-1.28	COc1ccc(Nc2ncc(C(=O)Nc3ccc(OC)c(Cl)c3)c3ccccc23)cc1
0.96	COc1cccc(C(=O)N2CCC(C(=O)NCc3ccc(C)cc3)CC2)c1
0.06	O=C(NC1CCCCC1)C1c2ccccc2C(=O)N1Cc1ccccc1 (stereo not drawn)
-0.09	COc1ccccc1NC(=O)c1ccccc1F
-1.83	CCSc1nnc2c(n1)OC(c1ccccc1OCC(=O)O)Nc1ccc(Br)cc1-2 (stereo not drawn)
0.85	O=C(NCc1ccc(F)cc1)c1ccc2c(c1)ncn2C1CCCC1
1.22	Cc1nc(-c2cc3ccccc3oc2=O)cc2c1c(=O)oc1ccccc12
-1.45	O=C(NCCCN1CCOCC1)c1cc(-c2cccc(Cl)c2)on1
0.29	c1ccc(-c2nnnn2-c2cccnc2)cc1
-2.26	O=C(CSc1nc2ccccc2c(=O)n1Cc1ccc2c(c1)OCO2)Nc1cccc(C(F)(F)F)c1
-0.08	CCCn1c(CN2CCCCC2C)nc2c1c(=O)n(C)c(=O)n2C (stereo not drawn)
-0.7	O=C(CCC1CCCCC1)NCc1cccnc1
1.28	Cc1cc(Br)ccc1NC(=O)C1c2ccccc2C(=O)N2CCc3ccccc3C12 (stereo not drawn)
1.87	O=C(c1cc2c(=O)oc3ccccc3c2s1)N1CCN(Cc2ccccc2)CC1
0.17	CCOCCCNC(=O)c1oc2ccc(S(=O)(=O)N3CCC(C)CC3)cc2c1C
-1.03	Cc1nn(CCCC(=O)Nc2ccccc2C(F)(F)F)c(C)c1[N+](=O)[O-]
0.35	COc1cccc(OC)c1C(=O)Nc1sc2c(c1C#N)CCCCC2
0.07	CN(C)CCN1C(=O)C(=O)/C(=C(/O)c2ccccc2)C1c1ccncc1 (stereo not drawn)
1.81	Nc1nc2ccc(CCC(=O)O)cc2s1
-0.47	COc1ccccc1NC(=O)CCn1c(=S)oc2ccccc21
0.68	COCCNC(=O)c1cnn2c(C)c(Cc3ccccc3C)c(C)nc12
-0.29	Cc1ccc(C(=O)CC2(O)C(=O)N(C(C)C)c3ccccc32)c(C)c1 (stereo not drawn)
-1.24	O=C(Nc1ccc(Br)cc1)C1CCCN(S(=O)(=O)c2cccc3nsnc23)C1 (stereo not drawn)
2.09	COC(=O)c1ccc(C(=O)OC)c(NC(=O)c2ccccc2[N+](=O)[O-])c1
0.04	Cc1ccc(N2CCN(c3ccc(N4C(=O)C5CCCCC5C4=O)cc3[N+](=O)[O-])CC2C)cc1 (stereo not drawn)
1.72	Cn1c2ccc(N=Cc3cccc(Cl)c3O)cc2c2nc3ccccc3nc21
-0.3	Cn1cc(CNC(=O)C2CC=CCC2C(=O)O)cn1 (stereo not drawn)
-0.04	CC1CCC2C(=O)N(c3ccccc3OC(=O)c3ccc(Br)cc3)C(=O)C2C1 (stereo not drawn)
0.84	Cc1nc(-c2ccccc2)c2c(=O)cc[nH]c2n1
0.07	CC(C)C1=CC23CCC4C(C)(C(=O)O)CCCC4(C)C2CC1C1C(=O)N(c2cccc([N+](=O)[O-])c2)C(=O)C13 (stereo not drawn)
-0.54	CCCOc1ccc(-c2cc(C(=O)N3N=C(C)CC3(O)C(F)(F)F)c3ccccc3n2)cc1 (stereo not drawn)
0.61	Cc1cc(N)n2nc(-c3ccc(Br)cc3)cc2n1
0.6	O=C(Cn1cnc([N+](=O)[O-])c1)C1CC1
1.21	Cc1ccc(COc2cc3oc(=O)cc(C)c3cc2Cl)cc1
1.78	O=C(CN1C(=O)c2cccc3cccc1c23)NCCSCc1ccco1

# An excerpt of these results, as labelled records:
Cc1ccc(N2CCN(c3ccc(N4C(=O)C5CCCCC5C4=O)cc3[N+](=O)[O-])CC2C)cc1 (stereo not drawn)
  Measles inh = 0.04
Cn1c2ccc(N=Cc3cccc(Cl)c3O)cc2c2nc3ccccc3nc21
  Measles inh = 1.72
Cn1cc(CNC(=O)C2CC=CCC2C(=O)O)cn1 (stereo not drawn)
  Measles inh = -0.3

# Grouped by structure, those above containing an aryl thioether with sulfur outside any ring (13)
Measles inh	SMILES
-0.8	CC(=O)Nc1cc(C(=O)NCCN(C)C)ccc1Sc1ccc(F)cc1
-0.47	C(=Cc1ccccc1)CSc1nnc(-c2ccncc2)n1-c1ccccc1
-1.95	COc1ccc(Cl)cc1NC(=O)CSc1nnnn1-c1ccc(C(=O)O)cc1
0.49	Cn1cc(SCc2ccc(Cl)cc2)c2ccccc21
0.01	CCCc1c(O)nc(SCC(=O)Nc2ccc3c(c2)CCC3)[nH]c1=O
1.3	CC(C)COC(=O)C(C)Sc1n[nH]c(=O)[nH]c1=O (stereo not drawn)
0.25	CC(Sc1cn(CCNC(=O)c2ccccc2F)c2ccccc12)c1ccccc1 (stereo not drawn)
1.07	CCC1CCCCN1C(=O)CSc1nc(-c2cccs2)cc(C(F)(F)F)n1 (stereo not drawn)
1.96	Cc1ccc(-n2c(SCC(=O)N3CCC(C)CC3)nc3c([nH]c4ccccc43)c2=O)cc1
-0.65	O=C(COc1cccc(Br)c1)Nc1ccc(SC(F)F)cc1
-1.84	Cc1nn(C(=O)c2ccco2)c(-c2ccccc2)c1Sc1ccccc1
-1.83	CCSc1nnc2c(n1)OC(c1ccccc1OCC(=O)O)Nc1ccc(Br)cc1-2 (stereo not drawn)
-2.26	O=C(CSc1nc2ccccc2c(=O)n1Cc1ccc2c(c1)OCO2)Nc1cccc(C(F)(F)F)c1

# From PubChem BioAssay

# A portion of the library (hit frequency here may not be typical).
